Bioassay records (PubChem BioAssay)
FGF22 binding: FGF22 (human) thermal shift binding; Q9HCT0; recombinant FGF22 thermal shift, SYPRO orange fluorescence; percent of sucrose octasulfate shift, DMSO zero; calls only at 9.99 µM; 1.5% of 340,000 active; AID 651658;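 active = melting point raised past a set limit in the mean and every replicate; three in four hits are not shown here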
Target sequence (Q9HCT0 whole entry, looked up): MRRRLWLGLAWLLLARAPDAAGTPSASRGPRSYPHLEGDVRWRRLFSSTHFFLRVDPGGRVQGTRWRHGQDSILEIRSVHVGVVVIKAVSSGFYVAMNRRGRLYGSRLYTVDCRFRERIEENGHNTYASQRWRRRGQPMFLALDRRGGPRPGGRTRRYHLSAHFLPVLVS
MLL AF4-AF9 inh: inhibitors of human MLL-AF4/AF9 interaction; P42568; AlphaScreen, biotin-AF4 peptide binding to FLAG-AF9; inhibition, % at 10 µM; 0.47% of 350,000 active; AID 651704;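 active = every replicate reaching a set inhibition limit, whatever the replicate mean, cut at about 25% in these data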;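 note: 0% = plate neutral control median and 100% = total signal loss; the record names both 10 and 1 µM as test concentration; the first replicate is given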
Target sequence (P42568 whole entry, looked up): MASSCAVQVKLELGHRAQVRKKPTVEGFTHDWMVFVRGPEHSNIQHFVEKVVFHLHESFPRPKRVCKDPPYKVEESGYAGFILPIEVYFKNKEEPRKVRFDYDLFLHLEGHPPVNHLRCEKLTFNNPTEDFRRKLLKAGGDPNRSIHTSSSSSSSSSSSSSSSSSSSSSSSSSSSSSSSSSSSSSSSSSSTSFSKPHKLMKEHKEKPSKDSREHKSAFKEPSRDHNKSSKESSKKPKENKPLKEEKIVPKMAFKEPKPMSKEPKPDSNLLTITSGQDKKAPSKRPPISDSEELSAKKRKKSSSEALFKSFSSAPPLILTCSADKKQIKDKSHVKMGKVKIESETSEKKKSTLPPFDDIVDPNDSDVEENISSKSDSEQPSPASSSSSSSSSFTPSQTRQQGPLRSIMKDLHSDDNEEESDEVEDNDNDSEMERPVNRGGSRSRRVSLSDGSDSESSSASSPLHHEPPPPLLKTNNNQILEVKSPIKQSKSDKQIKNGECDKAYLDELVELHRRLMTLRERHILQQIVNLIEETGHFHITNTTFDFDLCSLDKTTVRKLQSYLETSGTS
Ecoli rRNA inh: inhibits bacterial ribosomal RNA function over humanized ribosomes. AID 720706. 1.6% of 350,000 active. GFP signal change (wild-type ribosome), % (concentration not given with the values). E. coli WT GFP vs humanized-ribosome RFP mutants, fluorescence, 24 h; hits give low values; DMSO median 0, no signal -100;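 active = significant combined selectivity score with lowered wild-type GFP, culture density cut under 30%, mutant RFP and density less affected; inactive = any of these conditions unmet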; note: one replicate is shown; some compounds called inactive have numbers as strong as hits
Ecoli rRNA inh OD600: recorded beside Ecoli rRNA inh, whose call it bears; OD600 change, %; measured here: OD600 growth;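 optical density of the mix in the first replicate; 0 = DMSO median and -100 = no signal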
Ecoli rRNA inh RFP: recorded beside Ecoli rRNA inh, whose call it bears; RFP signal change, %; measured here: RFP humanized mutant strains;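 first replicate; 0 = DMSO median and -100 = no signal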
An asterisk follows results filed as active; i = inactive; + = active, no number; & = joins results of further samples. The list is partial; rates above refer to the full screens.

The opening 6 compounds, ahead of the listing:
FGF22 binding | MLL AF4-AF9 inh | Ecoli rRNA inh | Ecoli rRNA inh OD600 | Ecoli rRNA inh RFP | canonical_smiles
i | -3.0 | -3.9 | -7.8 | -2.7 | O=S(=O)(NCC[C@H]1CC[C@H](NS(=O)(=O)c2cccc(F)c2)[C@H](CO)O1)c1cccc(F)c1
i | -0.8&-1.3 | 7.8&3.4 | 17.8&14.4 | -1.2&-1.9 | C[C@H]1CN([C@@H](C)CO)C(=O)c2cc(Br)cnc2O[C@H]1CN(C)C(=O)c1ccc2c(c1)OCO2
i | 16.6 | -2.5 | 5.7 | -5.3 | CN1CCCCN2[C@@H](CO)[C@@H](c3ccc(C#Cc4ccccc4F)cc3)[C@@H]2C1
i | 0.8 | 1.5 | 0.8 | -0.3 | C[C@H](CO)N1C[C@H](C)[C@H](CN(C)C)Oc2ccc(NC(=O)Nc3ccc(C(F)(F)F)cc3)cc2CC1=O
i | -3.0 | 4.2 | -8.5 | 0.1 | Cc1c(COc2ccc3ccccc3c2)nnn1CC(=O)NS(=O)(=O)c1ccccc1C(F)(F)F
i | -0.2 | 0.5 | -1.7 | -4.1 | CNC(=O)C[C@@H]1CC[C@H]2[C@@H](COc3ccc(NC(=O)Nc4cccc(Cl)c4)cc3C(=O)N2C)O1

The list itself, from the start:
FGF22 binding | MLL AF4-AF9 inh | Ecoli rRNA inh | Ecoli rRNA inh OD600 | Ecoli rRNA inh RFP | canonical_smiles
i | -3.0 | -3.9 | -7.8 | -2.7 | O=S(=O)(NCC[C@H]1CC[C@H](NS(=O)(=O)c2cccc(F)c2)[C@H](CO)O1)c1cccc(F)c1
i | -0.8&-1.3 | 7.8&3.4 | 17.8&14.4 | -1.2&-1.9 | C[C@H]1CN([C@@H](C)CO)C(=O)c2cc(Br)cnc2O[C@H]1CN(C)C(=O)c1ccc2c(c1)OCO2
i | 16.6 | -2.5 | 5.7 | -5.3 | CN1CCCCN2[C@@H](CO)[C@@H](c3ccc(C#Cc4ccccc4F)cc3)[C@@H]2C1
i | 0.8 | 1.5 | 0.8 | -0.3 | C[C@H](CO)N1C[C@H](C)[C@H](CN(C)C)Oc2ccc(NC(=O)Nc3ccc(C(F)(F)F)cc3)cc2CC1=O
i | -3.0 | 4.2 | -8.5 | 0.1 | Cc1c(COc2ccc3ccccc3c2)nnn1CC(=O)NS(=O)(=O)c1ccccc1C(F)(F)F
i | -0.2 | 0.5 | -1.7 | -4.1 | CNC(=O)C[C@@H]1CC[C@H]2[C@@H](COc3ccc(NC(=O)Nc4cccc(Cl)c4)cc3C(=O)N2C)O1
i | -1.8 | 1.2 | 6.8 | -5.3 | CC(=O)N1CCC(c2nc3ccccc3n2C(C)C(=O)NCc2ccccc2)CC1 (centres undefined)
i | -0.6 | 0.2 | -5.2 | -0.3 | C[C@@H]1CN([C@H](C)CO)C(=O)c2cccc(NS(=O)(=O)c3ccc(F)cc3)c2O[C@@H]1CN(C)CC1CC1
i | -2.3 | 1.4 | 1.4 | -3.8 | C[C@H](NC(=O)C[C@H]1CC[C@H]2[C@@H](COC[C@H](O)CN2C(=O)Nc2ccccc2)O1)c1ccccc1
+ | -2.7 | -54.1 | -81.5 | -19.3 | O=C(Cn1cc(COc2c(F)c(F)c(Br)c(F)c2F)nn1)c1ccc(O)cc1
i | 0.0 | -0.4 | -4.6 | -3.7 | Cc1noc(C)c1NC(=O)Nc1cccc2c1O[C@H](CN(C)C(=O)Nc1ccc3c(c1)OCO3)[C@H](C)CN([C@@H](C)CO)C2=O
i | -1.1 | -0.5 | -1.5 | 0.3 | COCC(=O)N(C)C[C@@H]1Oc2ncc(-c3ccccc3C)cc2C(=O)N([C@H](C)CO)C[C@H]1C
i | 15.2 | -14.4 | -39.5 | 37.9 | C[C@H]1CCCCO[C@H](CN(C)Cc2ccccc2)[C@@H](C)CN([C@@H](C)CO)C(=O)c2cc(NC(=O)Nc3ccc(F)cc3)ccc2O1
i | -1.4 | 3.6 | -14.2 | -0.4 | CC1(C(=O)Nc2cccc3ncccc23)CCN1C(=O)C1(c2ccccc2)CC1 (centres undefined)
i | -3.5 | 2.7 | 2.0 | -0.8 | O=C(C[C@H]1CC[C@@H]2[C@H](COC[C@H](O)CN2C(=O)c2ccc(F)cc2)O1)Nc1nccs1
i | -2.8 | 13.2 | 10.5 | -0.2 | COc1cccc(C(C)(O)c2nc(-c3cnn(C)c3)cs2)c1 (centres undefined)
i | -6.2 | 6.8 | 17.6 | -3.5 | CCN(C)C1CN(Cc2cn(Cc3ccc(F)cc3)nn2)S(=O)(=O)C1 (centres undefined)
i | 6.8 | -3.6 | -26.1 | 14.4 | C[C@H](CO)N1C[C@H](C)[C@H](CN(C)CC2CCCCC2)OCCCC[C@H](C)Oc2ccc(NS(=O)(=O)c3ccccc3)cc2C1=O
i | -5.1 | -0.4 | 11.4 | -0.2 | COCC(=O)N1CC2(C1)[C@H](c1ccccc1)[C@H](CO)N2C(=O)NC1CCCC1
i | -1.5 | 2.9 | 1.6 | -2.8 | Cc1ccc(S(=O)(=O)N(C)C[C@H]2OCCCC[C@H](C)Oc3ccc(NC(=O)CCCN(C)C)cc3C(=O)N([C@H](C)CO)C[C@@H]2C)cc1
i | -0.7 | 1.2 | -1.3 | 0.8 | C[C@H]1CN([C@@H](C)CO)C(=O)Cc2cc(NS(=O)(=O)c3cccs3)ccc2O[C@H]1CN(C)C
i | -1.4 | -3.3 | -1.2 | -1.1 | CC(=O)N(C)C[C@@H]1[C@@H](c2ccc(-c3ccccc3)cc2)[C@H](CO)N1C(=O)C1CC1
i | 2.8&-2.4 | 0.0&1.2 | -7.3&-3.3 | 0.8&1.3 | COc1ccc(S(=O)(=O)Nc2ccc3c(c2)C(=O)N([C@H](C)CO)C[C@H](C)[C@@H](CN(C)Cc2ccncc2)OCCCC[C@@H](C)O3)cc1
i | -0.9 | 0.0 | 3.9 | -1.2 | C[C@H](CO)N1C[C@H](C)[C@@H](CN(C)C(=O)NC2CCCCC2)Oc2ccc(NC(=O)Nc3ccc(F)cc3)cc2C1=O
i | -0.5 | 0.5 | -2.0 | 0.8 | COCC(=O)N1C[C@H](C)[C@@H](OC)CN(C)C(=O)c2cc(NC(=O)NC(C)C)ccc2OC[C@@H]1C
i | -7.5 | -1.9 | -3.5 | -0.6 | COCCCNc1ccn2nc(-c3ccc(Cl)cc3)cc2n1
i | -8.0 | -1.7 | -1.9 | -0.6 | CCC(=O)Nc1ccc2c(c1)OC[C@H](C)N(C(=O)CC1CC1)C[C@@H](C)[C@@H](OC)CN(C)C2=O
i | -3.0 | -2.9 | -2.6 | -5.6 | COCC#Cc1ccc([C@H]2[C@H](CO)N3CCCCN(Cc4ccncc4)C[C@@H]23)cc1
i | -0.3&0.7 | 24.8&-0.4 | 13.9&-1.7 | 4.7&-0.9 | COc1ccccc1S(=O)(=O)N(C)C[C@H]1OCc2cn(nn2)CCCC(=O)N([C@@H](C)CO)C[C@@H]1C
i | -0.9 | -5.5 | -1.6 | 0.1 | C[C@@H]1CN([C@@H](C)CO)S(=O)(=O)c2ccc(C#Cc3ccccc3F)cc2O[C@@H]1CN(C)C(=O)c1ccc2c(c1)OCO2
i | -1.3 | -0.5 | 6.4 | -1.6 | CS(=O)(=O)N1CC2(C1)[C@H](c1ccccc1)[C@@H](CO)N2Cc1ccccc1
i | -4.5 | -5.0 | -23.7 | 19.5 | O=C(NC1CCC1)[C@@H]1[C@@H](CO)[C@@H]2Cn3c(ccc(-c4ccccc4)c3=O)[C@@H]2N1CCc1ccccc1
i | 1.3 | -7.0 | -7.0 | -2.5 | CCCCN(C=O)c1c(CC)nc2ccc(C(=O)N3CCN(c4ccccc4)CC3)cn12
i | 9.1 | 5.2 | -11.3 | 17.6 | COCC(=O)N1CCCCN2[C@H](CO)[C@@H](c3ccc(C#Cc4ccc(OC)cc4)cc3)[C@H]2C1
i | 1.6 | 2.8 | 15.2 | -0.7 | Cc1cccc(-c2ccc([C@@H]3[C@@H](CO)N4CCCCN(Cc5cncnc5)C[C@H]34)cc2)c1
i | 6.2 | 4.0 | 4.3 | 16.1 | C[C@H](CO)N1C[C@H](C)[C@@H](CN(C)Cc2ccccc2)Oc2ncc(C#CCc3ccccc3)cc2C1=O
i | 5.0 | -0.9 | 1.8 | 1.9 | C[C@H]1CCCCO[C@@H](CN(C)Cc2ccc3c(c2)OCO3)[C@@H](C)CN([C@@H](C)CO)C(=O)c2cc(NC(=O)CCC(F)(F)F)ccc2O1
i | 2.8 | -0.5 | 1.3 | -2.3 | COc1cccc(-c2ccc3c(c2)[C@H]2[C@H](CCN2C(=O)C2CCOCC2)[C@@H](CO)N3)c1
i | -1.8 | 6.5 | 8.1 | -1.6 | C[C@H](CO)N1C[C@H](C)[C@@H](CN(C)C(=O)CN2CCOCC2)Oc2ncc(C3=CCCCC3)cc2C1=O
i | -2.0 | 3.6 | -0.6 | -0.3 | CS(=O)(=O)Nc1ccc2c(c1)[C@@H]1C[C@@H](CC(=O)NCc3cccc(F)c3)O[C@H](CO)[C@@H]1O2
i | -4.8 | -5.1 | -9.2 | -0.5 | C[C@H](CO)N1C[C@H](C)[C@@H](CN(C)C(=O)CC2CC2)Oc2cc(C3=CCCC3)ccc2S1(=O)=O
i | -1.7 | -1.0 | 1.4 | -1.0 | Cn1cnc(S(=O)(=O)N[C@@H]2CC[C@H](CC(=O)NCC3CCCCC3)O[C@@H]2CO)c1
i | 2.4 | -5.3 | -37.7 | 2.3 | COc1ccc(S(=O)(=O)Nc2ccc3c(c2)C(=O)N([C@H](C)CO)C[C@@H](C)[C@@H](CN(C)Cc2ccc4c(c2)OCO4)OCCCC[C@H](C)O3)cc1
i | -0.2 | -0.3 | 11.3 | 0.1 | CO[C@@H]1CN(C)C(=O)c2ccc(N)cc2OC[C@@H](C)NC[C@H]1C
i | 0.7 | 1.3 | 7.2 | -0.1 | CCN1[C@H](C(=O)NCCOC)[C@@H](CO)[C@@H]2Cn3c(ccc(-c4ccc(C(=O)N(C)C)cc4)c3=O)[C@@H]21
i | 10.6 | -3.2 | -10.9 | 4.0 | CN(C)c1ccc2c(c1)[C@H]1C[C@H](CC(=O)NCc3ccc(Cl)cc3)O[C@H](CO)[C@H]1O2
i | -4.2 | 3.6 | 6.9 | -2.8 | [O-][n+]1ccccc1C(O)CSc1ccccc1 (centres undefined)
i | 3.7 | 4.2 | 5.2 | -1.4 | O=C(Nc1ccc2c(c1)OCO2)N[C@H]1C=C[C@@H](CC(=O)N2CCN(c3ccccc3)CC2)O[C@@H]1CO
i | 2.3 | -1.4 | -13.2 | 0.0 | CN1C(=O)c2cc(NC(=O)c3ccc(C(F)(F)F)cc3)ccc2OC[C@H]2O[C@H](CC(=O)NC3Cc4ccccc4C3)CC[C@@H]21
i | -2.6 | 5.7 | 13.1 | 1.1 | C[C@H](CO)N1C[C@H](C)[C@@H](CN(C)C(=O)c2ccncc2)Oc2cc(C#C[C@@H](C)O)ccc2S1(=O)=O
i | 4.8 | -5.2 | -3.6 | 6.0 | COc1cccc(-c2cnc3c(c2)C(=O)N([C@H](C)CO)C[C@@H](C)[C@H](CN(C)Cc2ccccc2)O3)c1
i | -1.7 | 3.9 | -1.6 | -0.3 | CCC(=O)N(C)C[C@@H]1Oc2cc(C#CC(C)(C)O)ccc2S(=O)(=O)N([C@H](C)CO)C[C@H]1C
i | -2.2 | 1.4 | 4.2 | -3.2 | CC(C)NC(=O)Nc1ccc2c(c1)C(=O)N([C@H](C)CO)C[C@H](C)[C@@H](CN(C)CC1CC1)OCCCC[C@H](C)O2
i | 4.2 | -18.8 | -54.6 | -10.6 | C[C@@H]1CN([C@H](C)CO)S(=O)(=O)c2ccc(C#CC3CC3)cc2O[C@H]1CN(C)C(=O)C1CC1
i | -2.1 | 4.2 | 6.5 | -1.1 | O=C(C[C@@H]1CC[C@H]2[C@@H](COC[C@@H](O)CN2S(=O)(=O)c2cccc(Cl)c2)O1)N1CCOCC1
i | 1.6 | -9.9 | -15.9 | -2.2 | CCOc1ccc(Cl)cc1-c1cc(C(=O)Nc2ccc(Br)cc2)[nH]n1
i | 6.5 | -3.4 | -7.7 | 1.7 | CO[C@H]1CN(C)C(=O)c2cc(NC(=O)Nc3cccc(Cl)c3)ccc2OC[C@H](C)N(C)C[C@@H]1C
i | 0.7 | 5.1 | 1.2 | -1.6 | O=C(C[C@H]1C[C@H]2c3cc(NC(=O)CC4CC4)ccc3O[C@H]2[C@H](CO)O1)NCCN1CCCCC1
i | -2.1 | -4.6 | -2.9 | -4.0 | CCC(=O)N(C)C[C@@H]1Oc2cc(-c3ccccc3OC)ccc2S(=O)(=O)N([C@@H](C)CO)C[C@@H]1C
i | 0.9 | 1.3 | 1.5 | -3.2 | C[C@H](CO)N1C[C@H](C)[C@@H](CN(C)C(=O)NC2CCCCC2)Oc2ccc(NC(=O)Nc3ccc4c(c3)OCO4)cc2C1=O
i | 1.6 | -9.2 | -12.4 | -1.6 | O=C(NCC[C@H]1CC[C@H](NS(=O)(=O)c2ccc(Cl)cc2)[C@@H](CO)O1)c1ccc2c(c1)OCO2
i | -0.3 | 13.4 | 20.4 | 2.1 | COc1ccc(-c2ccc([C@@H]3[C@@H](CO)N(C(=O)NC(C)C)[C@H]3C#N)cc2)cc1
